# KSHV LANA nucl = LANA-nucleosome interaction inhibition; z-score (concentration not given with the values); FITC-LANA1-23 / chicken nucleosome fluorescence polarization; active compounds read low; 51,000 compounds, 0.3% hits;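 active = both repeat wells score below -2 in polarization z-score versus plate sample wells, excluding overly bright wells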;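 also: 100 nL library stock added to about 30 µL; numbers are from one replicate; some results filed as inactive read as strong as hits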
#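 test system = FITC-LANA peptide and chicken nucleosomes | amount = 240 nM purified chicken nucleosomes (480 nM peptide binding sites), final | reagent = 50 nM FITC-LANA1-23 probe | medium = TEN-BT buffer, pH 7.5 | doses = single compound addition by pin transfer, 100 nL per well | timing = 10–45 min, room temperature | detection = fluorescence polarization | repeats = duplicate plates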
# BasE inh = BasE siderophore biosynthesis inhibition; purified BasE, fluorescence polarization binding displacement; inhibition, % (no concentration beside the values); 84,000 compounds, 0.1% hits; AID 485350;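 active = both replicates above 25% with normal brightness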;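 also: 0% = negative plate control signal and 100% = positive plate control signal; stock transfer was 100 nL into about 30 µL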
# The depositor's hits bear a star; x = not tested or not shown; & = joins results of further samples. Not all compounds are listed; rates above refer to the full screens.
SMILES,KSHV LANA nucl,BasE inh
O=S(=O)(Cc1noc(-c2ccc(OC(F)(F)F)cc2)n1)Cc1ccco1,x,2.4
CCOC(=O)c1cc2c(N)[nH]nc2[nH]c1=O,x,0.4
CCCOC(=O)c1cc(-c2ccc(/C=C3\C(=O)N(CCCO)C(=O)C(C#N)=C3C)o2)ccc1Cl,0.058,3.3
Cc1cc(/C=N/NC(=S)Nc2cccnc2)c(C)n1-c1cccc(S(=O)(=O)N2CCOCC2)c1,x,1.4
C=CCSCC1Nc2cc(Cl)c(S(N)(=O)=O)cc2S(=O)(=O)N1 (configuration not stated),0.081&2.3&0.39,-0.7&-2.5
O=C(c1ccccc1)C1CCN(C(=O)c2ccc(Cl)cc2)CC1,-0.4,3.0
Cc1ccc(C2=NN(C(=O)COC(=O)c3ccc(-n4cnnn4)cc3)C(c3ccco3)C2)cc1 (configuration not stated),x,2.7
Fc1ccc(-c2nc(-c3ccc(C(F)(F)F)cc3)no2)c(Cl)c1,x,0.2
CCC(Oc1ccccc1)C(=O)N1CCC(C(N)=O)CC1 (configuration not stated),-0.22,1.6
CCN(CC)C(=S)Nc1c(C)cccc1C,x,3.2

# Looked up above:
# CCCOC(=O)c1cc(-c2ccc(/C=C3\C(=O)N(CCCO)C(=O)C(C#N)=C3C)o2)ccc1Cl in KSHV LANA nucl shows 0.058
# C=CCSCC1Nc2cc(Cl)c(S(N)(=O)=O)cc2S(=O)(=O)N1 (configuration not stated) in KSHV LANA nucl shows 0.081&2.3&0.39
# CCC(Oc1ccccc1)C(=O)N1CCC(C(N)=O)CC1 (configuration not stated) in BasE inh shows 1.6
# O=S(=O)(Cc1noc(-c2ccc(OC(F)(F)F)cc2)n1)Cc1ccco1 in BasE inh shows 2.4

# Later entries
SMILES,KSHV LANA nucl,BasE inh
O=C(O)C1C2C=CC3(CN(C(c4ccccc4)c4ccccc4)C(=O)C13)O2 (configuration not stated),-1.3,-0.5
COc1ccc(C(=O)On2c(-c3ccccc3)cc3ccccc32)cc1,x,2.0
CCN(CC)S(=O)(=O)c1ccc(N2CC(C(=O)Nc3ccc4c(c3)OCO4)CC2=O)cc1 (configuration not stated),x,1.4
C/C(=N\OCc1ccc(C(=O)N2CCCCC2)o1)c1cccc(C(F)(F)F)c1,-1.2,1.5
COc1ccc(C)cc1NS(C)(=O)=O,-0.063,-0.2
COc1ccc(N2CC(C(=O)NCCc3c[nH]c4ccccc34)CC2=O)cc1 (configuration not stated),0.64,0.7
Cc1cc(C)nc(NN=C2CCCC2)n1,x,0.4
COc1ccc(CCN2C(=O)CC(N3CCCC(C(F)(F)F)C3)C2=O)cc1 (configuration not stated),x,1.6
O=C(NCC1CCCO1)c1cccc(-c2ccc(O)cc2)c1 (configuration not stated),x,0.9
C#CCSc1nc2ccccc2n1C(=O)c1ccc(S(=O)(=O)N2CCOCC2)cc1,1,0.2
NC[C@H]1O[C@H](OC2[C@@H](N)C[C@@H](N)[C@H](O[C@H]3O[C@H](CO)[C@@H](O)[C@H](N)[C@H]3O)[C@H]2O)[C@H](O)[C@@H](O)[C@@H]1O (some centres not stated),0.26&0.069,-0.8
CCn1c(CSc2nc3ccccc3s2)nnc1SCC(=O)c1c[nH]c2ccccc12,x,0.7
FC(F)(F)c1ccc(NCCN2CCOCC2)nc1,-0.56,3.5
Cc1c(Br)c(=O)[nH]c(=O)n1Cc1ccccc1,x,3.2
CC(=O)Nc1ccc2c(c1)C(=O)N(C1CCCCC1)C2=O,-1,0.4
Cn1c(SCC(=O)NCc2ccc(F)cc2)nc2ccccc21,x,-0.9
CCCc1cc(=O)oc2cc(OC(C(=O)OCC)c3ccccc3)c(Cl)cc12 (configuration not stated),x,2.5
COc1ccc(/C=N/n2c(C)nc3ccccc3c2=O)cc1,x,-0.1
Cc1ccc2nc(COC(=O)c3cccnc3Cl)cc(=O)n2c1,x,1.9
C=CCN1C(=O)CSC1=Nc1ccc(O)cc1,x,-0.7
CC(C)c1ccc2c(c1)c1c3n2CCN(CC#N)C3CCC1 (configuration not stated),x,-0.8
Oc1ccc2c(c1)C1CCCC1(N1CCOCC1)O2 (configuration not stated),x,0.6
COc1ccc(CCNC(=O)c2ccc3c(c2)OCO3)cc1,0.12,-2.1
O=C(CCS(=O)(=O)c1cc2c(cc1Cl)NC(=O)CO2)Nc1cccc(Cl)c1,-1.3,0.5
CC(OC(=O)c1cccc(S(C)(=O)=O)c1)C(=O)Nc1ccccc1C#N (configuration not stated),x,1.3
CN(C)C=NC(=S)c1ccc(-c2cccs2)s1,x,-2.5
CC(=O)NC1(c2ccccc2)CCN(CC(=O)Nc2c(C)n[nH]c2C)CC1,-0.095,0.4
Cc1ccc(S(=O)(=O)N(C)c2ccc3sc(C)nc3c2)cc1,0.35,-2.7
CCOc1ccccc1N1Cc2ccccc2C1,1.6,-4.9
Cc1ccc(C)c(OCC(=O)Nc2ccc(-c3nnc(-c4ccco4)o3)cc2)c1,-0.16,1.5

# Sorted by molar mass (low to high): some entries from above
SMILES,KSHV LANA nucl,BasE inh
CCN(CC)C(=S)Nc1c(C)cccc1C,x,3.2
CCC(Oc1ccccc1)C(=O)N1CCC(C(N)=O)CC1 (configuration not stated),-0.22,1.6
CCCc1cc(=O)oc2cc(OC(C(=O)OCC)c3ccccc3)c(Cl)cc12 (configuration not stated),x,2.5

# Carrying on:
SMILES,KSHV LANA nucl,BasE inh
Cc1cc(C)n(CC(=O)NN=C2CCCCCC2)n1,x,-0.6
O=S1(=O)CC(N2CCCC2)c2ccccc21 (configuration not stated),x,1.0
CCOc1ccc2[nH]c(=O)c(CN(Cc3ccccc3)C(=O)N3CCOCC3)cc2c1,2.4,-4.2
COC(=O)C1=C(c2ccccc2)Nc2ncnn2C1c1ccccc1F (configuration not stated),-0.65,-2.1
CC1(C)Oc2ccc(C(=O)Nc3ccc4c(c3)CCC4)cc2NC1=O,1.3,-0.1
O=C1CCc2cc(S(=O)(=O)NC3CCCCCC3)cc3c2N1CCC3,0.25,1.9
N#C/C(=C/c1cn(CC(N)=O)c2ccccc12)c1ccc(F)cc1,0.53,5.0
CCn1c(CNC(=O)N2CCCCC2)nnc1SC,0.074,-2.2
FC(F)(F)c1cccc(CSc2ccc3nnc(Cl)n3n2)c1,-1.1,x
CC(C)C(NS(=O)(=O)c1ccccc1)C(=O)O (configuration not stated),x,-0.1
COc1cccc(C2NS(=O)(=O)N=C3CCCCCN32)c1OC(F)F (configuration not stated),x,-1.1
Cc1cc2nc(CN3CCCc4ccccc43)cc(=O)n2o1,0.82,0.9
CCOc1ccc(-c2nc(C#N)c(NCCOC)o2)cc1,-0.63,3.9
Cn1c(CNC(=O)c2ccc(F)cc2)cc2ccccc21,-1.1,0.7
COC(=O)c1ccc(CSc2nc3cc(Cl)ccc3n2Cc2ccccc2)o1,x,1.1
CN(C(=O)CSc1nnc2n1CCCCC2)C1(C#N)CCCCC1,x,1.7
CC1C(C(=O)Nc2ccccc2)CCCC1(C)C(=O)O (configuration not stated),-0.42,-0.4
CN(C)N=Nc1nc[nH]c1C(N)=O,-0.048,0.9
CCCn1c(N)c(N2CCOCC2)c(=O)n(CC(=O)NCc2ccc(F)cc2)c1=O,x,-5.4
Cc1ccc2cc(CN(Cc3cccnc3)C(=O)c3cccnc3)c(=O)[nH]c2c1,2.9,-3.0
O=C(N/C(=C/c1ccc(Br)cc1)C(=O)N1CCCC1=O)c1ccco1,-0.55,2.2
COc1ccc(/C=N/OC(C)=O)c(OC)c1,0.48,0.4
O=C(CSc1n[nH]c(-c2ccccc2)n1)NCC1COc2ccccc2O1 (configuration not stated),x,1.2
CCCn1c(N2CCN(C(=O)Nc3ccc(OC)cc3)CC2)nc2ccccc21,-0.28,-0.4
C=CCOc1ccccc1C1NC(=O)NC(C)=C1C(=O)NCc1ccccc1 (configuration not stated),-0.32,-0.6
S=c1[nH]nc(-c2ccccc2)n1C1C=CCCC1 (configuration not stated),-0.53,0.3
CC(Oc1ccc(S(=O)(=O)NCc2ccccn2)cc1)C(=O)NC1CCCCC1 (configuration not stated),-0.91,3.0
COC(=O)C(=CC(C)C)C(=O)OC,-0.22,3.3
CC(NCC(O)C(F)(F)F)c1ccccc1 (configuration not stated),0.26,x
CC(C)Cn1c(SCC(=O)Nc2ccc3c(c2)OCO3)nc(O)cc1=O,x,-2.0
O=C(O)CC12CC3CC(C1)CC(n1cncn1)(C3)C2,0.3,-1.2
O=C(O)CCC(=O)Nc1nc(-c2ccccc2)cs1,-1.6,1.2
COC(=O)Oc1ccc2c(C)cc(=O)oc2c1,0.4,1.7
O=C(O)CCCc1ccc2ccc3cccc4ccc1c2c34,x,5.1
c1ccc(CN(Cc2ccccc2)c2c3c(nc4ncnn24)CCC3)cc1,x,-1.6
O=C(Cn1c(=O)cnc2ccccc21)NC1CCCCC1,x,0.0
COCCOc1ccc(C(F)(F)F)cc1NC(=O)c1ccno1,x,-0.9
Oc1c(Cl)cc(Cl)c2cccnc12,-0.057&-0.17,-1.1
Cc1cc(/C=C/C(=O)N(C)Cc2ccco2)c(C)n1-c1ccnn1C(C)C,x,-1.3
S=c1cc(-c2ccccc2)n(Cc2ccco2)c2c1CCCC2,0.5,-2.8

# Next part, starting with the last 2 of the part before.
SMILES,KSHV LANA nucl,BasE inh
Cc1cc(/C=C/C(=O)N(C)Cc2ccco2)c(C)n1-c1ccnn1C(C)C,x,-1.3
S=c1cc(-c2ccccc2)n(Cc2ccco2)c2c1CCCC2,0.5,-2.8
CC1CCN(S(=O)(=O)c2cccc(C(=O)NC(C)C)c2)CC1,-0.32,1.6
COc1ccc(C(=O)CSc2nnc(Cc3cc(=O)[nH]c(=O)[nH]3)n2-c2cccc(OC)c2)cc1,-0.48,-0.9
CN(C)c1ccc(C(CNC(=O)c2ccccc2)N2CCCC2)cc1 (configuration not stated),2,-3.8
Nc1nccnc1C(=O)OCC(=O)NC1CC1,x,0.5
CC1=NNC(=O)C1CCC(=O)N/N=C/c1ccccc1 (configuration not stated),0.22,-0.9
COCCN1Cc2cc3cc4c(cc3nc2SC1=Nc1cccc(OC)c1)OCO4,0.75,-0.4
CN(C)/C=N/n1cnc2ccccc2c1=O,x,1.0
O=C(c1cccc(S(=O)(=O)Nc2ccccn2)c1)N1CCCc2ccccc21,-2.3,2.2
Cc1csc(NC(=O)c2ccccc2C(=O)O)c1-c1nc2ccccc2s1,x,2.2
CCCn1c(=O)/c(=C2/C=Cc3ccccc3N2C)s/c1=C1\SC(=S)NC1=O,0.26,1.9

# 2 of the compounds above, tab-delimited.
mol	KSHV LANA nucl	BasE inh
CC1CCN(S(=O)(=O)c2cccc(C(=O)NC(C)C)c2)CC1	-0.32	1.6
COc1ccc(C(=O)CSc2nnc(Cc3cc(=O)[nH]c(=O)[nH]3)n2-c2cccc(OC)c2)cc1	-0.48	-0.9

# Next section:
SMILES,KSHV LANA nucl,BasE inh
NC(=O)c1c(NC(=O)COC(=O)Cc2ccsc2)sc2c1CCCC2,x,1.9
CCCNC(=O)c1cc(Cl)cc(Cl)c1,2.4,x
CCOC(=O)N1CCN(C(=O)CSc2ncc(C(=O)O)n2-c2ccc(F)cc2)CC1,x,-0.2
CN(C)S(=O)(=O)c1ccc(C(=O)NNc2nc3ccccc3s2)cc1,x,3.6
O=C(CCSc1ccccc1)c1cccs1,x,1.5
CCOc1ccc(S(=O)(=O)N(CC(=O)NCc2ccccc2)c2ccccc2)cc1,x,0.7
CC(=O)NC(CC(=O)O)C(=O)O (configuration not stated),-0.14,0.3
CSc1ccccc1N=Cc1c(O)[nH]c2ccccc12,-0.058,3.4
Cc1ccc2c(c1)c1c(n2C)/C(=N/NC(N)=S)CCC1,-0.92,-0.7
O=C(O)c1cc2c([nH]c1=O)CCCCC2,0.92,0.2
N#C/C(C(N)=O)=C1/N=C(N)c2ccccc21,x,0.2
O=C(NCCc1c[nH]c2ccccc12)c1c(Cl)nc2sccn12,x,0.7
N#Cc1cc2c(nc1SCC(=O)c1ccccc1)CCC2,x,-1.5
O=C(c1ccco1)N1C(=O)c2cccc3c(S(=O)(=O)N4CCCC4)ccc1c23,0.33,-1.3
Cc1nc2ccccc2c(=O)n1/N=C/c1ccccn1,x,0.0
Nc1cc(=O)[nH]c(SCC(=O)N2CCCCC2)n1,-0.17,-3.6
Cc1nn(Cc2ccccc2)c(Cl)c1/C=C/C(=O)OCc1nnc(-c2ccccc2)o1,x,-1.2
CC1(C)CC(=O)C(CS(=O)(=O)c2ccccc2)=C(O)C1,-0.89,x
COc1ccc(NC(=O)c2ccc(OC)nc2OC)cc1,-0.4,0.7
COc1ccccc1NC(=O)N1CCN(c2cc(-c3ccccc3)nc3ncnn23)CC1,0.009,3.5
CCN(CC)c1ccc(C(=O)NCCN)cc1,-0.42,3.5
CN(C(=O)COC(=O)c1ccc(Cl)nc1)c1ccccc1,x,3.2
Cn1c(CN2CCOCC2)nnc1Sc1c(-c2ccccc2)c2ccccc2[nH]c1=O,0.35,-2.0
O=C1Nc2ccccc2C(O)(C(=O)N2CCC3(CC2)OCCO3)N1c1ccccc1 (configuration not stated),-0.15,0.5
Cc1ccc(C2C(C#N)=C(SCC(=O)N3c4ccccc4CC3C)NC3=C2C(=O)CCC3)o1 (configuration not stated),-1.5,-0.8
CC(=O)N(CC(=O)O)c1ccccc1,0.41,-2.5
Cn1cnc2c(=O)oc3ccc(S(=O)(=O)N4CCCCC4c4cccnc4)cc3c21 (configuration not stated),-0.84,7.9
COC(=O)Cn1c(=O)c2c(n(Cc3ccccc3)c1=O)NCC2=O,x,-4.8
Fc1ccc2nc(Nc3nc4ccccc4s3)sc2c1,-0.76,-0.4
O=C1NC(=O)/C(=C\c2cccs2)S1,x,1.0
CCCc1ccc(S(=O)(=O)N2CCNCC2)cc1,x,-2.7
CCOc1ccccc1N=C1S/C(=C\c2ccc(N(C)C)cc2)C(=O)N1CCN1CCOCC1,x,4.5
COc1ccc(NC(=O)CC2SC3=NCCN3C2=O)cc1 (configuration not stated),-0.22,2.1
COc1nc(C)ccc1-c1noc(-c2ccccc2)n1,1.4,-5.8

# Source: PubChem BioAssay
